Vaccinia Venus: qHTS for Stage-Specific Inhibitors of Vaccinia Orthopoxvirus: Venus Reporter Primary qHTS. Vaccinia virus Venus reporter expression, fluorescence. Potency, µM (titrated, usually from 36.5 µM), for inactives: top-dose activity change, negative = inhibition, most hits filed as inhibitors. 0.46% of 330,000 active; active means well fitted inhibition curve with a large enough effect; inconclusive means small, poorly fitted or top-dose-only effect; inactive means no such curve, though single readings can be large or run the other way; tested in A549 cells; note: nearly all actives have a fitted effect of over 30% in size; inactives centre near -10
Vaccinia mCherry: qHTS for Stage-Specific Inhibitors of Vaccinia Orthopoxvirus: mCherry Reporter Primary qHTS; Vaccinia virus mCherry reporter infection, fluorescence; about a quarter of the inactives have no number; Potency, µM (top dose mostly 36.5 µM), for the others: at the highest dose activity change, negative = inhibition, hits mostly inhibitors; 0.63% of 310,000 active; active = well fitted inhibition curve with a large enough effect; inconclusive = small, poorly fitted or top-dose-only effect; inactive = no such curve, though single readings can be large or run the other way; tested in A549 cells; note: nearly all actives have a fitted effect of over 35% in size; inactives centre near -10
An asterisk follows results filed as active; i = inactive; u = inconclusive; x = no result given; & = joins results of further samples; [ ] = another dose, or the depositor's remark. % is set by controls: 0 for no effect and ±100 for the full control effect; potency is the fitted concentration of half-maximal effect. An unsorted share of the library; overall some 0.87% were active at least once.

SMILES	Vaccinia Venus	Vaccinia mCherry
COc1cc(C(=O)N2CCN(C(=O)C(Cc3cc(C)ccc3C)NC(C)=O)CC2)cc(OC)c1OC (configuration not stated)	-11%	-12%
CN1CCN(C(=O)CCC(=O)c2ccc(F)cc2)CC1	-22%	x
Cc1ccc(-c2nc3cc(NC(=O)Cc4ccc(Cl)cc4)ccc3o2)cc1	-5%	-9%
CCCCCCCSc1cc(OC)c(CCNC)cc1OC	u	x
CCN(CC)C(=O)c1ccc2sc([C@H]3C[C@H](O)[C@@H](CO)O3)nc2c1	-3%	14%
CCOC(=O)C1=C(C#N)C(C(=O)OCC)c2ncccc21 (configuration not stated)	u	-29%
CC(C)CNC(=S)NNC(=O)CC(C)O (configuration not stated)	-2%	7%
O=C(COC(=O)c1cc(S(=O)(=O)N2CCOCC2)ccc1F)NC1CC1	-19%	-9%
COc1cc(OC)cc(C(=O)N2CCN(C3CCC(C)CC3)CC2)c1 (configuration not stated)	-9%	-14%
O=C(CN1CCN(C(=O)c2ccco2)CC1)Nc1cc(S(=O)(=O)N2CCCC2)ccc1Cl	-23%	-1%
CCN(CC)CCNC(=O)C1CCN(c2cc(C)nc3c(-c4ccc(Cl)cc4)c(C)nn23)CC1	-8%	-10%
COc1ccccc1-c1ccc(C(=O)N(C)C(C)c2ccon2)c(N2CCN(c3ccccc3F)CC2)n1 (configuration not stated)	-4%	i
CCOc1ccc(CCNC(=O)c2c(C)oc3ncn(CC(C)C)c(=O)c23)cc1OCC	-9%	-10%
COc1cccc(CNC(=O)c2ccc3c(c2)c(C)c(C)n3Cc2ccccc2)c1	-22%	-25%
COC(=O)CNC(=O)c1ccc(C)s1	-1%	-12%
CC(C)c1ccc(NC(=O)CN2C(=O)COc3ccc(S(=O)(=O)N4CCOCC4)cc32)cc1	-7%	-12%
Cc1ccc(CNC(=O)CCC2CCCN(Cc3ccc4cccc(F)c4n3)C2)o1 (configuration not stated)	1%	-6%
CC(C)=C1C2CCC1C1C(=O)N(c3ccc4c(c3)OCO4)C(=O)C21 (configuration not stated)	2%	i
Cc1ccc(-c2nc3cccnc3s2)cc1NC(=O)C(C)C	-7%	-7%
CCSC1=C(C#N)C2(CCCCC2)C(C#N)=C(N)N1	-25%	x
Cc1nnc(NC(=O)c2ccc(F)c(S(=O)(=O)N3CCOCC3)c2)s1	-6%	-17%
CC(C)c1cc(NCc2ccccn2)n2c(nc3ccccc32)c1C#N	-9%	-12%
CCCCn1c(N)c(N(CC(C)C)C(=O)c2ccc(S(=O)(=O)N3CCC(C)CC3)cc2)c(=O)[nH]c1=O	-17%	-6%
CCCCOc1ccc(-c2cnc3ccccc3n2)cc1	-6%	-10%
CC12CC(NC(=O)N1c1cccc(C(=O)N3CCN(c4ccccc4)CC3)c1)c1ccccc1O2 (configuration not stated)	-20%	-20%
COc1ccccc1NC(=O)c1cccc(N2C(=O)C3C4C=CC(C4)C3C2=O)c1 (configuration not stated)	-1%	-12%
O=C(COC(=O)CNC(=O)c1ccc(Cl)cc1Cl)NC1CCCCC1	-6%	i
COc1ccccc1CNc1ccc(-c2nc(-c3ccccn3)no2)cc1[N+](=O)[O-]	u	i
O=C(Nc1nccs1)c1csc([C@H]2C[C@H](O)[C@@H](CO)O2)n1	4%	0%
COC(=O)c1ccc(NC(=O)CSc2nc3ccc(OC)cc3[nH]2)cc1	3%	-4%
O=C(CSc1nnc2ccccn12)NNC(=O)c1ccccc1F	-19%	-9%
CN(CC(=O)NCCc1ccc(S(N)(=O)=O)cc1)Cc1ccc(Cl)cc1Cl	-16%	-24%
C[C@H](CO)N1C[C@H](C)[C@H](CN(C)CC2CCCCC2)Oc2ccc(NS(=O)(=O)c3ccc(F)cc3)cc2CC1=O	u	u
CCc1nn2cc(C(=O)c3cc(C)ccc3O)cnc2c1-c1ccc(F)cc1	-13%	-13%
O=C(NCc1cccs1)c1nn(-c2ccccc2F)nc1CO	-25%	-23%
COc1cccc2c1cc1c(=O)n(CC(=O)N3CCN(c4ccc(F)cc4)CC3)nc(C)n12	-10%	-2%
COc1ccc(CCNC(=O)c2ccc(OCC(=O)N3CCOCC3)c(OC)c2)cc1	-8%	i
NC(=O)CCN(C1CCCCC1)S(=O)(=O)c1cccc2nsnc12	0%	i
CN1CCN(C(CNC(=O)C(=O)NC2CCCC2)c2ccc(F)cc2)CC1 (configuration not stated)	-14%	-23%
O=C(c1cc(=O)[nH]c2ccccc12)N1CCc2ccccc2C1	-14%	-4%
CC(C)C[C@@H](CSc1ccc(Br)cc1)N1CCN(CC(C)C)CCC1=O	-9%	i
NC(=O)CC(NC(=O)c1ccccc1)c1ccc(NCCN2CCOCC2)c([N+](=O)[O-])c1 (configuration not stated)	-19%	i
Nc1ncnc2c1ncn2[C@@H]1O[C@H](CNCC#Cc2ccccc2)[C@@H](O)[C@H]1O	-12%	i
COc1ccc2[nH]cc(C(=O)CN3CCN(C4CCCCC4)CC3)c2c1	2%	x
COc1ccc(S(=O)(=O)NNC(=O)c2csc(-n3nc(C)cc3C(F)(F)F)n2)cc1OC	-4%	-10%
CN(C)c1cccc(CNC(=O)c2csc([C@@H]3C[C@H](O)[C@@H](CO)O3)n2)c1	-11%	-14%
CC1=CC(C)C(/C=N/n2cnnc2)C(C)C1 (configuration not stated)	-8%	x
O=C(CNC(=S)N(Cc1ccccc1)Cc1cccnc1)NCCN1CCOCC1	-4%	i
COc1ccc(Cn2c(CO)cnc2SCC(=O)Nc2ccc3c(c2)OCCO3)cc1	-1%	-1%
CCOc1ccc(NC(=S)Nc2cccnc2)cc1	0%	-4%
Cc1cccc(C)c1-n1nnnc1SCC(=O)N1CCNC1=O	-12%	i
CCCCCCNC(=O)C(=O)NCCc1ccc(Cl)cc1	-9%	i
CN1C(=O)/C(=N/OC(=O)c2ccccc2)c2ccccc21	-19%	x
CCn1c(SCC(=O)Nc2sc3c(c2C#N)CCCC3)nnc1-c1ccncc1	u	i
CCOc1ccccc1N1CC(O)=C(c2nc3ccccc3s2)C1=N	u	-12%
Cc1cc(C)n(Cc2ccc(Cl)nc2)n1	-3%	3%
O=c1[nH]sc2ccccc12	-10%	-14%
CCc1ccc(CNC(=O)Cn2c(-c3cccs3)cc3cc(F)ccc32)cc1	-13%	-14%
CCc1ccc(S(=O)(=O)Nc2cc3c(C(=O)OCc4ccccc4)c(C)oc3c3ccccc23)cc1	9%	-3%
Cc1ccc(C)c(OCCC(=O)OCC(=O)NCc2ccccc2)c1	1%	-22%

Next part; the last 7 above are carried over.
SMILES	Vaccinia Venus	Vaccinia mCherry
CCn1c(SCC(=O)Nc2sc3c(c2C#N)CCCC3)nnc1-c1ccncc1	u	i
CCOc1ccccc1N1CC(O)=C(c2nc3ccccc3s2)C1=N	u	-12%
Cc1cc(C)n(Cc2ccc(Cl)nc2)n1	-3%	3%
O=c1[nH]sc2ccccc12	-10%	-14%
CCc1ccc(CNC(=O)Cn2c(-c3cccs3)cc3cc(F)ccc32)cc1	-13%	-14%
CCc1ccc(S(=O)(=O)Nc2cc3c(C(=O)OCc4ccccc4)c(C)oc3c3ccccc23)cc1	9%	-3%
Cc1ccc(C)c(OCCC(=O)OCC(=O)NCc2ccccc2)c1	1%	-22%
COc1cc(/C=C/C(=O)OCC(=O)NCCc2ccccc2)cc(OC)c1OC	-9%	-20%
Cc1nn(CCC(=O)O)c2nc(-c3cccnc3)cc(C(F)(F)F)c12	-18%	x
CC(=O)Nc1ccc(N/C=C/C(=O)c2ccc(Cl)cc2)cc1	-2%	-4%
CCCOc1ccccc1/C=C(\C#N)C(=O)Nc1cccc(C)n1	-10%	-15%
COc1ccc(O)c(CN2CCN(CCc3ccccc3)C(CCO)C2)c1 (configuration not stated)	1%	-13%
CCOC(=O)c1ccc(S(=O)(=O)NCC(c2ccc(N(C)C)cc2)c2c[nH]c3ccccc23)cc1 (configuration not stated)	-23%	-14%
Cc1cc(C(C)(C)C)ccc1OCC(=O)N/N=C\c1c(C)n(C)n(-c2ccccc2)c1=O	-3%	-17%
COc1ccc(-c2nc(SC(CC(=O)NCCN3CCOCC3)c3cccs3)n[nH]2)cc1 (configuration not stated)	-9%	i
CC(O)c1ccc(-n2cnnn2)cc1 (configuration not stated)	-7%	i
O=c1c2cnn(-c3ccc(F)cc3)c2ncn1Cc1ccccc1Cl	-14%	-4%
Cc1ccc(-n2nc3c(=O)n(CCCC(=O)NC(C)c4ccccc4)nc(C)c3c2C)cc1 (configuration not stated)	u	-34%
CC1(C)S[C@@H]2[C@H](NC(=O)[C@H](N)c3ccccc3)C(=O)N2[C@H]1C(=O)O	-15%&-11%	-1%&-19%
Cc1oc2ncn(CC(C)C)c(=O)c2c1C(=O)N1CCN(c2ccc(F)cc2)CC1	-1%	-6%
Cc1ccc(-n2nc(C(=O)N3CCOCC3)cc2-c2ccc(Cl)cc2)cc1	-18%	x
Cc1ccc(C(C)C)cc1OCC(=O)Nc1ccc(N2CCCCC2)cc1	1%	-6%
CCOc1cccc2sc(N(CCN(C)C)C(=O)c3ccc(Br)s3)nc12	9%	-12%
CC(C)CCN(C(=S)Nc1cccc(C(F)(F)F)c1)C(C)c1ccccn1 (configuration not stated)	-16%[7.34 µM]	-2%[7.34 µM]
CCOc1ccc(OCC(=O)Nc2ccc(OC)cc2[N+](=O)[O-])cc1	-4%	-29%
O=C(c1ccc(Br)o1)N1CCC(c2nc3ccccc3[nH]2)CC1	-7%	-12%
CCOC(=O)c1cc2c(=O)n3ccccc3nc2n(Cc2ccco2)c1=NC(=O)c1ccccc1OCC	-19%	-21%
CCCSCCCNC(=O)C1CCN(C(=O)c2cc3sccc3n2C)CC1	-7%	-1%
CCOC(=O)c1sc(NC(=O)C(C)Oc2ccc(OC)cc2)c(C(=O)OCC)c1C (configuration not stated)	-13%	i
C/C(=N\Nc1nc(C)cc(-c2ccccc2)n1)c1ccccc1	-14%	i
N#CC1(NC(=O)COC(=O)CSc2ccc(F)cc2)CCCCC1	-12%	i
O=C(CN1CCN(S(=O)(=O)c2ccc(Br)s2)CC1)NC1CCCCC1	-8%	-14%
COc1ccc(S(=O)(=O)Nc2ccc(O)c3ccccc23)cc1	-1%	-12%
O=C(Nc1cccnc1)c1ccc(COCC(F)(F)F)cc1	-4%	-4%
O=C(CSc1nnc(Cc2ccccc2)n1Cc1ccccc1)NCc1ccco1	-5%	-12%
O=C(/C=C/c1ccc(F)cc1)Nc1cc(S(=O)(=O)N2CCOCC2)ccc1N1CCOCC1	-6%	i
Cc1cc(C)c(C)c(OCC(=O)N2CCN(c3ccccn3)CC2)c1	-24%	-9%
CCCN1C2CCCC1CC(NC(=O)c1cccc(Cl)c1)C2 (configuration not stated)	-14%	-20%
C[C@@H]1CN([C@H](C)CO)S(=O)(=O)c2ccc(-c3cccc(C#N)c3)cc2O[C@H]1CN(C)C(=O)Nc1cc(F)ccc1F	-20%	i
Cc1cc(C)cc(NC(=O)/C(C#N)=C/c2cn(CC(=O)NCc3ccco3)c3ccccc23)c1	5.6µM*	u
Cc1ccc2c(c1)c(C)c(C)n2CC(O)Cn1nc(C)cc1C (configuration not stated)	-12%	-22%
CC(=O)NCC(=O)OCC(=O)c1ccccc1	-3%	-14%
O=C(CCCOc1ccccc1)N1CCN(c2ccccc2)CC1	-13%	x
Cc1cc2oc(C(=O)Nc3cccc(-c4nc5ccccc5o4)c3)c(C)c2cc1C	4%	-5%
CCN(CC(=O)NCc1ccc(F)cc1)c1ccc(S(C)(=O)=O)cc1[N+](=O)[O-]	-7%	-10%
Cc1c(NC(=O)CSc2nnc(C(C)N(C)C)n2-c2ccccc2)c(=O)n(-c2ccccc2)n1C (configuration not stated)	-3%	-15%
CCCCn1c(=O)c(C(=O)NCc2ccco2)c(O)c2ccccc21	-9%	i
Cc1nc(NNC(=O)c2ccccc2)cc(-c2ccccc2)n1	5%	x
NS(=O)(=O)c1ccc(NC(=O)c2csnn2)cc1	-17%	-11%
Cc1sc2nc(CSCC(=O)Nc3c(Cl)cccc3Cl)[nH]c(=O)c2c1C	-24%	-4%
CCCC(=O)Nc1ccc2oc(-c3ccc(O)c(Br)c3)nc2c1	-8%	-3%
CCCn1c(SCc2nc(-c3ccccc3OCC)no2)nnc1-c1ccc(Cl)cc1	-17%	-12%
O=C(O)c1ccc2c3c(cccc13)C(=O)N(OS(=O)(=O)c1ccccc1)C2=O	-7%	i
CN(C)C1(c2nnnn2-c2ccc(Cl)cc2)CCCCC1	-10%	i
Cc1cc(C)cc(NC(=O)C2COc3ccccc3O2)c1 (configuration not stated)	-10%	-3%
COc1ccc(-c2nnc(N(C)C(=O)C3CCOC3)s2)cc1 (configuration not stated)	-26%	x
O=C(N/N=C/c1cn(-c2ccccc2)nc1-c1cc2ccccc2o1)c1ccccc1Br	-11%	i
O=C(NCCSCc1ccco1)c1ccc(CN2CCOCC2)cc1	-15%	-4%
[O-][n+]1c2ccccc2[n+]([O-])c2cc(O)ccc21	75%[activator]	-15%
COc1cc(S(=O)(=O)NCC(c2ccco2)N2CCCCC2)ccc1NC(C)=O (configuration not stated)	-12%	i

As a working copy, part of the list above.
SMILES	Vaccinia Venus	Vaccinia mCherry
CCCn1c(SCc2nc(-c3ccccc3OCC)no2)nnc1-c1ccc(Cl)cc1	-17%	-12%
O=C(O)c1ccc2c3c(cccc13)C(=O)N(OS(=O)(=O)c1ccccc1)C2=O	-7%	i
CN(C)C1(c2nnnn2-c2ccc(Cl)cc2)CCCCC1	-10%	i
